Env fusion inh = HIV envelope-mediated fusion inhibition; HeLa-JRFL Env/CEM21 cell fusion, luciferase; inhibition, % at 12.3 µM; actives 1.1% (n = 360,000); AID 651610;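 active = mean replicate inhibition score of at least 50 and every replicate individually at or above 50; inconclusive = only one of the two criteria met; inactive = mean below 50 and not all replicates reaching 50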;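 also: 0% = plate neutral controls and 100% = maraviroc near 300 nM; one replicate is shown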
PABP polyA inh = PABP-poly(A) binding inhibition; P11940; actives 1% (n = 290,000); inhibition, % at 35 µM; AID 2014; PABP-poly(A) RNA binding, fluorescence polarization;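 active = 50% or more with normal probe brightness, or confirmed in later tests; inconclusive = above 50% with abnormal brightness, or retests that disagree; inactive = below 50% or failed in later tests; about a fifth of its hits are not listed in these tables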;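 also: calls also rest on retests at 20 µM and on dose response follow-up; controls were probe without protein and protein plus probe with vehicle; some compounds called inactive have numbers as strong as hits; many hits fall short of the cut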
Target sequence (P11940 whole entry, looked up): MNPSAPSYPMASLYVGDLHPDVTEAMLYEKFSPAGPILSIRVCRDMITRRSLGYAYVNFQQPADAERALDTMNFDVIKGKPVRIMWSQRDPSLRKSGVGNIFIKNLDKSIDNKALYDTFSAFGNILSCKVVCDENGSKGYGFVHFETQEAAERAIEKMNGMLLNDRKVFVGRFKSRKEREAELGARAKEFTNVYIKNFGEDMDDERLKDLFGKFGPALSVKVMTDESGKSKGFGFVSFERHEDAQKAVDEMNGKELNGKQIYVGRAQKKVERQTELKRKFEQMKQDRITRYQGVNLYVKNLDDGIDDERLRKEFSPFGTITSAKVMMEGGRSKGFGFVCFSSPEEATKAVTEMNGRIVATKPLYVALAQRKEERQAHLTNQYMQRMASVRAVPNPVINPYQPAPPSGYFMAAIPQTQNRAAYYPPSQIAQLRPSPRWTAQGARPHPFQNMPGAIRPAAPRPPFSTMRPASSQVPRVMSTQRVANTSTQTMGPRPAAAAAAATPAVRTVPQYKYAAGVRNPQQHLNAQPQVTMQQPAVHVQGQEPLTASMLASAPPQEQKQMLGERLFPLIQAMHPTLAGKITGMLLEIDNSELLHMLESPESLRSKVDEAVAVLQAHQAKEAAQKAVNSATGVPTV
eIF4H inh = inhibitors of RNA binding by human eIF4H | Q15056 | eIF4H fluorescence polarization binding assay | inhibition, % at 35 µM | actives 0.94% (n = 290,000) | AID 2012;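 active = 50% or more with normal probe brightness, or confirmed in later tests; inconclusive = above 50% with abnormal brightness, or retests that disagree; inactive = below 50% or failed in later tests; about a fifth of its hits are not listed in these tables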;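 also: calls also rest on retests at 20 µM and on dose response follow-up; 0% = protein and probe with vehicle and 100% = probe without protein; strong numbers were not always called active; many hits fall short of the cut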
Rce1 inh = blocks yeast Ras-converting enzyme; Q03530; yeast membranes, quenched prenylated peptide cleavage fluorescence; calls only; actives 0.27% (n = 290,000); AID 2563;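 active = fall in fluorescence gain of 50% or more versus controls, with final raw signal at or below 3038400; inconclusive = same 50% fall but final raw signal above 3038400; inactive = fall in fluorescence gain under 50%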;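 also: plate controls were neutral control wells for no effect and wells lacking membranes for full effect; tested at 10 µM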
Target sequence (Q03530 whole entry, looked up): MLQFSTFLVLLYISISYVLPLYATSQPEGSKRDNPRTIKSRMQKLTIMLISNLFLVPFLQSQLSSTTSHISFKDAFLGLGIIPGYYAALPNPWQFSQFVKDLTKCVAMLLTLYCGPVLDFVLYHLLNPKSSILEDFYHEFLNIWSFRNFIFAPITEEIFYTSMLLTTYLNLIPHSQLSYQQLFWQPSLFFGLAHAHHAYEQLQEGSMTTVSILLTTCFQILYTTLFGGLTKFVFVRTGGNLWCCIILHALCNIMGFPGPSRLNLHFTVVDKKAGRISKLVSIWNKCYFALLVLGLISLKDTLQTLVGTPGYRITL
CSC inhib = blocks cancer stem cells. actives 1.1% (n = 300,000). AID 2717. inhibition, % at 7.5 µM. cancer stem cell-like cells viability, luminescence;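 active = mean at 75% or more and at least half the replicates too; inconclusive = mean and replicates disagree; tested in HMLE shEcad cells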;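 also: 0% = median of negative and 100% = median of positive control wells; the first replicate is given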
UUG fidelity = yeast start codon fidelity modulation; S. cerevisiae UUG-firefly luciferase reporter, luminescence/redox ratio; activity score, % at 18.7 µM; actives 0.13% (n = 350,000); AID 602363;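 active = replicate mean at a twofold rise or more, about +100% in these data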;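 also: firefly luciferase made from a UUG start codon reports start codon fidelity; reporter light over untreated wells divided by growth signal over untreated wells; some hits fall short of that in this replicate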
MT1-MMP act inh = blocks activation of human MT1-MMP | HT1080 RFP-PRO-GFP cells, GFP/RFP ratio fluorescence, overnight; percent of plate control window, DMSO zero | GFP/RFP ratio change, % at 20 µM | actives 0.061% (n = 360,000);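 active = GFP/RFP ratio change of at least 30% with cell ATP level not reduced by more than half and red fluorescence within 50% of control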; also: strong numbers were not always called active
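Material – HT1080 RFP-PRO-GFP cells · Control set – DMSO wells and RFP-L50D-GFP cells · Incubation – overnight cell settling, then overnight compound exposure, 37 °C, 5% CO2 · Compound dosing – single-point 20 µM compound, 1% DMSO · Read-out – GFP/RFP fluorescence ratio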
eIF4H inh retest = also measured in eIF4H inh; calls as there; inhibition, %; compound at 20 µM; confirmation average;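 mean of two retest wells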
PABP polyA inh retest = second read-out of PABP polyA inh, no call of its own (marks repeat the call); inhibition, %; compound at 20 µM; confirmation repeats;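 mean of two retest wells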
MT1-MMP act inh RFP = also measured in MT1-MMP act inh; calls as there; RFP signal change, %; measured here: RFP expression control read;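 0 = vehicle wells; hits needed this value within 50% of zero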
The depositor's hits bear a star.

Screening NC(=O)CC(NC(=O)Cc1ccc(Br)cc1)c1ccc(NC2CCN(Cc3ccccc3)CC2)c([N+](=O)[O-])c1 (stereo unspecified) returned Env fusion inh -10, PABP polyA inh 8, eIF4H inh -14, Rce1 inh inactive, CSC inhib -4, UUG fidelity -12, MT1-MMP act inh 3 and MT1-MMP act inh RFP 0.
For CCN(CC)c1ccc2nc3ccccc3[n+](CC)c2c1 the results were PABP polyA inh 72*, eIF4H inh 39, CSC inhib 26, UUG fidelity 6, MT1-MMP act inh 80, eIF4H inh retest 29, PABP polyA inh retest 94* and MT1-MMP act inh RFP 53.
For CCOC(=O)C(C(=O)NCc1cccc(OC)c1)c1ncc(C(F)(F)F)cc1Cl (stereo unspecified) the results were PABP polyA inh 2, eIF4H inh -8, Rce1 inh inactive, CSC inhib -6, UUG fidelity -9, MT1-MMP act inh 0 and MT1-MMP act inh RFP 0.
COc1cc(OC)c2c(O)c3c(c(-c4c5c(c(O)c6c(OC)cc(OC)cc46)CO[C@@H](C)[C@H]5O)c2c1)[C@H](O)[C@H](C)OC3 was read as PABP polyA inh 15, eIF4H inh 86, Rce1 inh inactive, CSC inhib -2, UUG fidelity -13, MT1-MMP act inh 3, eIF4H inh retest -5, PABP polyA inh retest 14 and MT1-MMP act inh RFP 14.
CC(C)c1ccc(C(C(=O)NC(C)(C)C)N(C(=O)CNC(=O)c2ccco2)c2cccnc2)cc1 (stereo unspecified) was read as Env fusion inh -200, PABP polyA inh -9, eIF4H inh -4, Rce1 inh inactive, CSC inhib -4, UUG fidelity -10, MT1-MMP act inh 0 and MT1-MMP act inh RFP 2.
`O=S(=O)(NCc1ccccc1Cl)c1cccs1` gave Env fusion inh -4, PABP polyA inh 6, eIF4H inh -9, Rce1 inh inactive, CSC inhib 3, MT1-MMP act inh -4 and MT1-MMP act inh RFP -1.
`COc1cc(Br)c(C(C)NC(=O)c2ccc(C)cc2)cc1OC` (stereo unspecified) gave Env fusion inh 15, PABP polyA inh 1, eIF4H inh -4, Rce1 inh inactive, UUG fidelity 11, MT1-MMP act inh 7 and MT1-MMP act inh RFP -7.
Screening O=C(N/N=C/c1c(O)n(-c2ccccc2Cl)c(=O)c2ccccc12)c1cccnc1 returned Env fusion inh 20, PABP polyA inh 3, eIF4H inh 8 and Rce1 inh inactive.
For COc1ccc(C)cc1NC(=O)c1nn(-c2ccccc2)cc1OC the results were Env fusion inh 18, PABP polyA inh -4, eIF4H inh 0, Rce1 inh inactive, CSC inhib 57, UUG fidelity -3, MT1-MMP act inh -6 and MT1-MMP act inh RFP -3.
Screening CC1CCN(C(=O)CN(Cc2ccc(F)cc2)S(C)(=O)=O)CC1 returned Env fusion inh -19, PABP polyA inh -9, eIF4H inh 5, Rce1 inh inactive, UUG fidelity -1, MT1-MMP act inh 1 and MT1-MMP act inh RFP 4.
C/C(=N\O)C(=O)NCCCNCCCN(C)C was read as PABP polyA inh -7, eIF4H inh 5, Rce1 inh inactive, CSC inhib -17, UUG fidelity -6, MT1-MMP act inh -9 and MT1-MMP act inh RFP -10.
CCOC(=O)c1[nH]c2ccc(OC)cc2c1C was read as PABP polyA inh 6, eIF4H inh 3, Rce1 inh inactive, CSC inhib 5, MT1-MMP act inh 3 and MT1-MMP act inh RFP -4.
For O=C(/C=C/c1ccccc1)N(Cc1ccc(Cl)cc1)C1CCS(=O)(=O)C1 (stereo unspecified) the results were Env fusion inh 23, PABP polyA inh -4, eIF4H inh 8, Rce1 inh inactive, CSC inhib -7, UUG fidelity 8, MT1-MMP act inh -3 and MT1-MMP act inh RFP 0.
Screening Cc1cc(Cc2cc(C)c(O)c(CO)c2)cc(CO)c1O returned Env fusion inh -35, UUG fidelity -9, MT1-MMP act inh 8 and MT1-MMP act inh RFP -1.
Screening CC(=O)Nc1ccc(S(=O)(=O)N2CCCCC2c2cccnc2)cc1 (stereo unspecified) returned Env fusion inh 13, PABP polyA inh 4, eIF4H inh 3, CSC inhib 22, UUG fidelity 1, MT1-MMP act inh 2 and MT1-MMP act inh RFP 6.
CC(=O)NCCn1c(SCC(=O)Nc2ccc(C)cc2)nc2ccccc2c1=O was read as Env fusion inh 9, PABP polyA inh -2, eIF4H inh 0, Rce1 inh inactive, CSC inhib -13, MT1-MMP act inh 2 and MT1-MMP act inh RFP 3.
S=C(Nc1ccc2snnc2c1)N1CCN(c2ccccn2)CC1 was read as Env fusion inh -36, PABP polyA inh 0, eIF4H inh -9, Rce1 inh inactive, CSC inhib -9, UUG fidelity -23, MT1-MMP act inh -4 and MT1-MMP act inh RFP 2.
CCOc1ccccc1NC(=O)Cn1c(-c2ccc(Cl)cc2)noc1=O was read as Env fusion inh 30, PABP polyA inh 3, eIF4H inh 2, Rce1 inh inactive, CSC inhib -8, UUG fidelity -2, MT1-MMP act inh -7 and MT1-MMP act inh RFP 0.
For CCOc1cc(C(=O)N(C)CC(=O)Nc2cccc(F)c2)ccc1OCC(=O)N1CCCCC1 the results were Env fusion inh -6, Rce1 inh inactive, CSC inhib -6, UUG fidelity 14, MT1-MMP act inh -3 and MT1-MMP act inh RFP 1.
`O=C(NCC(F)(F)F)c1nn(Cc2ccccc2)c(=O)c2ccccc12` gave Env fusion inh 6, PABP polyA inh 7, eIF4H inh 8, Rce1 inh inactive, CSC inhib -3, UUG fidelity -7, MT1-MMP act inh 2 and MT1-MMP act inh RFP 1.
For CN1CCN(Cc2c(C(=O)N3CCc4ccccc4C3)nc3ccc(Cl)cn23)CC1 the results were Env fusion inh 0, PABP polyA inh 4, eIF4H inh -4, Rce1 inh inactive, CSC inhib 3, UUG fidelity -5, MT1-MMP act inh -2 and MT1-MMP act inh RFP 4.
`CC(C)CCOc1ccc(C(=O)O)cc1` gave PABP polyA inh -5, eIF4H inh 6, Rce1 inh inactive, CSC inhib -5, UUG fidelity -12, MT1-MMP act inh 4 and MT1-MMP act inh RFP 2.
`CN(Cc1ccccc1)S(=O)(=O)c1ccccc1Br` gave Env fusion inh -20, UUG fidelity -17, MT1-MMP act inh 3 and MT1-MMP act inh RFP 0.
`C=C(C)Cn1c2ccc(NC(=O)CCc3cccnc3)cc2c(=O)n1C` gave Env fusion inh -2, UUG fidelity -22, MT1-MMP act inh -5 and MT1-MMP act inh RFP 0.

The list goes on, starting with the last 2 of the part before.
`CN(Cc1ccccc1)S(=O)(=O)c1ccccc1Br` gave Env fusion inh -20, UUG fidelity -17, MT1-MMP act inh 3 and MT1-MMP act inh RFP 0.
`C=C(C)Cn1c2ccc(NC(=O)CCc3cccnc3)cc2c(=O)n1C` gave Env fusion inh -2, UUG fidelity -22, MT1-MMP act inh -5 and MT1-MMP act inh RFP 0.
`COC(=O)C1CCCN1C(=O)C1CCCN1C(=O)CNC(=O)OCc1ccccc1` (stereo unspecified) gave PABP polyA inh -5, eIF4H inh 0, Rce1 inh inactive, CSC inhib 1, UUG fidelity 3, MT1-MMP act inh 2 and MT1-MMP act inh RFP 4.
Screening CCOC(=O)c1c(C)c[nH]c1C returned Env fusion inh 12, PABP polyA inh -2, eIF4H inh 15, Rce1 inh inactive, CSC inhib -10, MT1-MMP act inh 1 and MT1-MMP act inh RFP 3.
For O=C(CSc1nnnn1-c1ccc2c(c1)OCO2)NCc1ccccc1 the results were Env fusion inh 0, PABP polyA inh 37, eIF4H inh 17, Rce1 inh inactive, CSC inhib 39, MT1-MMP act inh -11 and MT1-MMP act inh RFP -4.
`CC(C)CCNC(=O)Nc1ccc2c(c1)N(C)C(=O)CS2` gave Env fusion inh -14, PABP polyA inh 4, eIF4H inh -3, Rce1 inh inactive, CSC inhib -14, MT1-MMP act inh 2 and MT1-MMP act inh RFP 3.
For CCOc1cccc2cc(C(=O)NC(C)c3ccccc3)c(=N)oc12 (stereo unspecified) the results were Env fusion inh -21, PABP polyA inh 4, eIF4H inh 13, Rce1 inh inactive, CSC inhib -18, UUG fidelity -18, MT1-MMP act inh -2 and MT1-MMP act inh RFP 2.
Screening CCC(=O)N1c2ccccc2C(N(C(=O)CC)c2ccccc2)CC1C (stereo unspecified) returned Env fusion inh -18, PABP polyA inh 0, eIF4H inh -6, Rce1 inh inactive, CSC inhib 4, UUG fidelity 8, MT1-MMP act inh 3 and MT1-MMP act inh RFP 11.
For COC(=O)CN(c1c(C)cccc1C)S(C)(=O)=O the results were Env fusion inh 14, PABP polyA inh 0, eIF4H inh -6, Rce1 inh inactive, CSC inhib -2, UUG fidelity 0, MT1-MMP act inh -3 and MT1-MMP act inh RFP 2.
`COc1ccc(/C=C(\NC(=O)c2ccc(Cl)cc2)C(=O)NCC2CCCO2)cc1OC` (stereo unspecified) gave Env fusion inh 1, PABP polyA inh 14, eIF4H inh 3, Rce1 inh inactive, UUG fidelity -3, MT1-MMP act inh -2 and MT1-MMP act inh RFP -2.
For Cc1ccc(C)c(NC(=O)CN(C)C(=O)[C@@H](NC(=O)c2ccc(C(C)(C)C)cc2)C(C)C)c1 the results were PABP polyA inh -4, eIF4H inh -12, Rce1 inh inactive, CSC inhib 24, UUG fidelity -4, MT1-MMP act inh -22 and MT1-MMP act inh RFP -26.
Cc1ccc2c(c1)c1nnc(SCC(=O)Nc3ccc(N(C)C)cc3)nc1n2CC(=O)O was read as Env fusion inh -21, PABP polyA inh 39, eIF4H inh inconclusive, Rce1 inh inactive, CSC inhib 1, UUG fidelity -7, MT1-MMP act inh -1 and MT1-MMP act inh RFP 4.
Cc1ccc(NC(=O)NC(=O)CSc2nnc(-c3ccc(Cl)cc3Cl)n2N)c(C)c1 was read as Env fusion inh 0, PABP polyA inh -4, eIF4H inh 4, Rce1 inh inactive, CSC inhib 4, MT1-MMP act inh 3 and MT1-MMP act inh RFP 1.
For CCc1cc(C(=O)N(Cc2ccccc2)c2c(N)n(CCOC)c(=O)[nH]c2=O)sc1C the results were Rce1 inh inactive, CSC inhib -3, MT1-MMP act inh -15 and MT1-MMP act inh RFP -4.
Cc1cc(C)c2nc(NC(=O)c3ccc(OCC4CCCO4)cc3)sc2c1 (stereo unspecified) was read as Env fusion inh 25, PABP polyA inh -11, eIF4H inh -1, Rce1 inh inactive, CSC inhib 4, MT1-MMP act inh -30 and MT1-MMP act inh RFP -38.
`COc1ccc(C(=O)Nc2cc(OC)cc(OC)c2)cc1` gave PABP polyA inh 5, eIF4H inh 3, Rce1 inh inactive, CSC inhib 2, UUG fidelity -1, MT1-MMP act inh 4 and MT1-MMP act inh RFP 3.
Screening Cc1nn(CC(=O)NN)c(C)c1Br returned Env fusion inh 2, PABP polyA inh 8, eIF4H inh -7, Rce1 inh inactive, CSC inhib -3, UUG fidelity -13, MT1-MMP act inh 1 and MT1-MMP act inh RFP 4.
`Cc1ccc(OCC(=O)Nc2sc3c(c2C#N)CC(C)(C)NC3(C)C)cc1` gave Env fusion inh 7, PABP polyA inh 0, eIF4H inh -14, Rce1 inh inactive, CSC inhib -7, MT1-MMP act inh 2 and MT1-MMP act inh RFP 1.
For O=C(Nc1ccc(Oc2ccc(C(=O)O)c(C(=O)O)c2)cc1)c1cccs1 the results were Env fusion inh -5, PABP polyA inh 1, eIF4H inh 1, Rce1 inh inactive, CSC inhib 0, MT1-MMP act inh 1 and MT1-MMP act inh RFP 5.
COc1ccccc1N1CCN(CC(O)c2ccc3cc[nH]c3c2)CC1 (stereo unspecified) was read as Env fusion inh -6, PABP polyA inh -5, eIF4H inh -16, Rce1 inh inactive, CSC inhib 17, UUG fidelity 1, MT1-MMP act inh 2 and MT1-MMP act inh RFP 5.
